Source: PubChem BioAssay (National Center for Advancing Translational Sciences (NCATS))
D2 PAM = positive allosteric modulators of human D2 dopamine receptor; DiscoveRx D2 beta-arrestin cells, luminescence, 90 min; 100% = 57 uM dopamine signal; 360,000 tested, 0.23% active; potentiation, % (concentration not given with the values); active = potentiation of 50% or more; inconclusive = 30% to 50%; inactive = 30% or less;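 also: compound concentration not given in the record; tested on top of an EC20 dose of dopamine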
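PathHunter D2 cells, attached overnight at 37 deg C, received compound in DMSO plus dopamine at EC20 (50 nM final) for 90 min at 37 deg C. Beta-arrestin recruitment was read as luminescence after 1 h with detection reagent at ambient temperature.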
TRPML1 agonist = human mucolipin-1 channel agonism; TRPML1-expressing cells, Ca2+ dye fluorescence, FDSS; host cell line not named in the record; reference of the full effect not given here; activation, % (concentration not given with the values); 410,000 tested, 0.12% active; in the data active = activation above about 50%; inconclusive = about 30% to 50%; inactive = below about 30%; also: 0% is about no effect; the text of the record puts the active cut at 80%
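Cells: TRPML1-DL, 1X Tet inducer, ~16 h at 37 degrees C/5% CO2. Dye: ABD Ca8 no-wash + quencher, 45-90 min RT. Read: 10 s baseline, compound add, 110 s agonist phase; 54-4 EC80 (4uM final), 110 s antagonist phase.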
CtBP-E1A inh = blocks the CtBP interaction with E1A; AlphaScreen GST-E1A/His-CtBP binding, 1536-well; hits give low values; control for the full effect not named in the record; activity change, % (concentration not given with the values); 340,000 tested, 0.49% active; AID 651724; in the data active means activity change below about -65%; inconclusive means about -30% to -65%; inactive means above about -30%; also: % is scaled to controls: 0 for no effect and ±100 for the full control effect
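AlphaScreen with 125 nM GST-E1A and 125 nM His-CtBP (5X stocks) in Tris pH 8.0, 300 mM NaCl, BSA, Tween 20, TCEP. Compounds preincubated 2 h at 37 deg C, then glutathione donor/nickel acceptor beads added for 1 h at 37 deg C in dark.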
Six1-Eya2 blk = blocks human Six1 binding to Eya2; Q15475+O00167; AlphaScreen GST-Six1/His-Eya2 binding, biochemical; hits give low values; control for the full effect not named in the record; activity change, % (concentration not given with the values); 360,000 tested, 0.56% active; AID 651725; in the data active = activity change below about -65%; inconclusive = about -30% to -65%; inactive = above about -30%; also: % is scaled to controls: 0 for no effect and ±100 for the full control effect
Target sequence (O00167 whole entry, looked up): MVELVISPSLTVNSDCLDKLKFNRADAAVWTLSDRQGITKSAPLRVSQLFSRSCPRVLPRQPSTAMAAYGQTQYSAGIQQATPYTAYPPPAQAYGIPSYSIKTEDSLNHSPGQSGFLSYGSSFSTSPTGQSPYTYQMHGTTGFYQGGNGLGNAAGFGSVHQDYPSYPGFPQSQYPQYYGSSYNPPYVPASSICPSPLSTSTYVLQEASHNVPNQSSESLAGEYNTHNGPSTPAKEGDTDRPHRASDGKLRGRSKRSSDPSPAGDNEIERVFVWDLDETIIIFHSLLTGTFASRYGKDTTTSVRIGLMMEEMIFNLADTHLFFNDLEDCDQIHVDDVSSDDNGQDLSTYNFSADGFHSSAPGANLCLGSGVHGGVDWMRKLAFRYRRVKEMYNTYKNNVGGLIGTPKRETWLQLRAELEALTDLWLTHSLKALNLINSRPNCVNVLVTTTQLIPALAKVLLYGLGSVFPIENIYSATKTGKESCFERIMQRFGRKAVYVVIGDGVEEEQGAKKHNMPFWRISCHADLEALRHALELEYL
Target sequence (Q15475 whole entry, looked up): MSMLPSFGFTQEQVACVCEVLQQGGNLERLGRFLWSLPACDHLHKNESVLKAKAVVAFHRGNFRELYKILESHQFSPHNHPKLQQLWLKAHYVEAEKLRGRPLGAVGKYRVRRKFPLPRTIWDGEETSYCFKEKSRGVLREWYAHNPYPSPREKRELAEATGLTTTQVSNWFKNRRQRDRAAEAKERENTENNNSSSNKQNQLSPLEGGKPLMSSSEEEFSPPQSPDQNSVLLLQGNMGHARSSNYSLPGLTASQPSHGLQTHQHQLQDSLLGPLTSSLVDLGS
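Six1/Eya2 binding was read as AlphaScreen signal after compounds were pinned into GST-Six1 plus His-tagged Eya2 (5X stock 250/500 nM) in pH 8.0 Tris/NaCl/TCEP buffer, beads added, then incubated 1 h, 37 C, dark.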
TRPML1 blocker = inhibitors of human TRPML1 channel; TRPML1-inducible cells, Ca2+ dye fluorescence, FDSS; hits give low values; inhibition of EC80 agonist-evoked calcium signal; activity change, negative = inhibition, % (concentration not given with the values); 390,000 tested, 0.02% active; AID 624415; in the data active means activity change below about -50%; inconclusive means about -30% to -50%; inactive means above about -30%;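 also: stimulus is agonist 54-4 at its EC80 concentration; % is scaled to controls: 0 for no effect and ±100 for the full control effect; compound concentration not given in the record; the text of the record puts the active cut at -80%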
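TRPML1-DL cells, Tet-induced overnight (~16 h, 37 °C) at 1,500 cells/well, were loaded with Ca8 no-wash dye plus quencher for 45-90 min at room temperature. Compounds were pinned during FDSS kinetic reading; agonist 54-4 at EC80 (4 uM final) then added.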
TRPV1 potentiator = human TRPV1 potentiation. AID 540277. potentiation, % at 8.33 µM. TRPV1-expressing cells, Fluo-8 calcium influx, capsaicin EC20 potentiation; host cell line not named in the record; control for the full effect not named in the record. 320,000 tested, 0.02% active. Q8NER1; active means potentiation above 80%; inconclusive means 30% to 80%; inactive means below 30%; also: 0% is about no effect
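Cells expressing TRPV1 were dye-loaded with Fluo-8 and read kinetically: 10 s baseline, 3 min after compound (agonist portion), then 2 min after EC20 capsaicin (allosteric enhancer portion). Calcium-bound dye fluorescence at 480/520 nm.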
Active calls of the source: *; ? = inconclusive; · = no result given; & = joins results of further samples. No enrichment for hits; any-hit rate near 0.95%.

SMILES	D2 PAM	TRPML1 agonist	CtBP-E1A inh	Six1-Eya2 blk	TRPML1 blocker	TRPV1 potentiator
COc1ccc(-c2ccc(CN3C(C(C)C)C(=O)N(Cc4cn(CCC5OCCCO5)nn4)CCS3(=O)=O)cc2)cc1OC (stereo not drawn)	-4	-0.9	-12	-1	2	·
CCOC(=O)c1oc2ccccc2c1NC(=O)C1CCCCC1	10	0.5	6	0	-3	28
COc1cccc(-c2ccc(C#N)c(SCC(=O)NCCc3cccc(Cl)c3)n2)c1	-8	6.3	12	2	-4	-1
CCOc1ccc(NC(=O)CC2C(=O)N(CC)C(=S)N2CCN2CCOCC2)cc1 (stereo not drawn)	-7	0.2	14	2	19	-9
CSc1ccc(/C=N/N2CCN(Cc3ccccc3Cl)CC2)cc1	-11	0.1	0	-29	-2	0
COc1ccc2[nH]c(=O)c(CN(Cc3cccnc3)C(=O)Nc3ccccc3)cc2c1	3	1.2	-11	-2	5	-3
CN(Cc1ccccc1)C(=O)c1ccc2nc([C@@H]3O[C@H](CO)[C@H](O)[C@H](O)[C@H]3O)[nH]c2c1	-2	0.5	28	29	·	·
CC1=Nc2ccccc2/C1=C/c1c(C)[nH]c2ccccc12	-5	-0.4	-22	-21	-11	·
O=C(CN(Cc1ccco1)C(=O)Cn1nnc(-c2cccs2)n1)NCC1CCCO1 (stereo not drawn)	-1	0.1	·	-12	27	5
O=C(OCC(=O)N1CCCc2ccccc21)c1ccccc1NCCO	1	-0.9	15	6	5	9
CCCCCOc1ccc(C(=O)NCC(=O)NCC(=O)OCC)cc1	-4	-0.7	5	1	13	-1
Cc1ccc(CNC(=O)CN2CCN(c3ccc(F)cc3)CC2)cc1	-7	-0.6	6	2	-4	-40
COc1cccc(CNCC2CCCO2)c1 (stereo not drawn)	-1	0.2	9	1	35	-8
CC1CCN(C(=O)COC(=O)C(C)N2C(=O)c3ccccc3C2=O)CC1 (stereo not drawn)	-1	-0.3	0	9	-4	8
C#CC[N+]1(CC#Cc2ccccc2)CCCC1	-3	-0.5	7	5	10	-6
Cc1cc(NC(=O)CSc2nccn2-c2ccc(F)cc2)no1	-7	0.2	7	0	-6	-3
C=CCN(CC=C)Cc1cc(=O)n2c(-c3ccccc3)csc2n1	-2	0.4	3	5	-27	-13
COc1ccc(N2CCN(c3ccc(C(=O)O)cc3[N+](=O)[O-])CC2)cc1	0	0.1	-3	6	4	-11
OCCNc1nc2ccc(Cl)cc2[nH]1	-10	-0.2	1	5	6	11
O=C(CNC(=O)c1ccccc1F)OCC(=O)N1CCCc2ccccc21	-1	-0.8	7	5	27	17
CC(=O)NC(c1ccccc1)c1nc(-c2ccc(C)c(C)c2)cs1 (stereo not drawn)	-3	0.6	1	-3	·	·
CC1(C)Cc2c(C#N)c(SCCOc3ccccc3)nc(N3CCOCC3)c2CO1	15	2.1	-1	2	-11	-2
Cc1ccc(-c2nc(COC(=O)c3c(C)noc3C)cs2)cc1	-7	1.5	99	58	7	-7
COC(=O)c1ccc(CN2CCCC(CO)(Cc3ccc(F)cc3F)C2)cc1 (stereo not drawn)	-25	-0.7	-15	0	-18	-17
COc1cccc(/C=C/C(=O)OCC(=O)NCC2CCCO2)c1OC (stereo not drawn)	-11	-0.4	11	11	-6	-2
Cn1c(=O)[nH]c(=O)c2c1nc1n2CCCS1	-11	0.5	-3	-10	43	-9
Cc1csc(SCC(=O)NC(C)C2CC3CCC2C3)n1 (stereo not drawn)	10	0.1	5	0	24	-11
Cc1cnn(C(=S)NCC2CCCO2)c1 (stereo not drawn)	-17	1.6	-9	4	-5	-11
Oc1oc(-c2ccccc2)nc1/C=N/c1ccccn1	-10	-0.5	-10	-2	-4	6
CCOC(=O)c1c(C)[nH]c(C(=O)CN2CCN(CC)CC2)c1C	-11	0.0	10	1	-5	5
Cc1ccc(F)cc1NC(=O)CN1C(=O)NC2(CCCc3ccccc32)C1=O (stereo not drawn)	-19	1.5	5	-2	66	1
Cc1cc(C(F)(F)F)nc(CCNCc2c(C(=O)N3CCCC3)nc3ccccn23)n1	-18	-1.0	-20	2	54	6
O=C(NCCc1ccc(Cl)cc1)C1CCN(S(=O)(=O)c2cccc3nonc23)CC1	-1	0.7	-6	7	-13	23
COCCNC(=O)/C(C#N)=C/c1ccc(SC)cc1	-3	-0.8	-25	5	-16	-14
N#Cc1ccc(N2CCOCC2)nc1	-16	0.1	·	4	-6	0
CSc1nc(Oc2cccc(C(F)(F)F)c2)cc(C(F)(F)F)n1	3	-0.1	8	25	1	-7
Cc1nnc(Sc2nc3c(c(=O)n(C)c(=O)n3C)n2Cc2ccccc2Cl)s1	21	0.5	0	-1	19	·
CCCCNC(=O)C1(C)CCCCN1C(=O)c1ccc2sccc2c1 (stereo not drawn)	-6	-0.5	8	5	·	·
CCN(CC(=O)NCc1ccc(F)cc1)C(=O)CN1CCN(c2cc(Cl)ccc2C)CC1	-25	-0.5	-13	-5	0	16
Cc1ccc(NCc2cccc(B(O)O)c2)cc1	·	-0.5	-28	-2	-6	·
COc1ccc(-n2c(C)c(C)c3c(NCCCN(C)C)ncnc32)cc1	-4	-0.5	-25	-18	13	-15
CC(C)(C)C1CCC(=NNC(=O)c2cc(-c3ccccc3)n[nH]2)CC1 (stereo not drawn)	6	0.0	-8	0	4	3
O=C(Nc1ccccc1N1CCOCC1)c1cccc([N+](=O)[O-])c1	-5	-0.8	-11	-5	2	-1
Cc1cc(C)cc(C(=O)NC(CC(N)=O)c2ccc(N3CCC(N4CCCCC4)CC3)c([N+](=O)[O-])c2)c1 (stereo not drawn)	-50	-0.1	-1	6	12	8
CCCC(=O)N1CC2(C)CN(C(=O)CCC)CC(CCC)(C1)C2=O	-30	0.0	0	5	35	9
CCCCSc1c(C)c2cc3c(cc2[nH]c1=O)OCO3	-16	0.6	12	1	-7	5
Cc1ccc(-c2nnc(SCC(=O)N/N=C/c3cccs3)n2-c2ccc(C)cc2)cc1	-13	5.1	-3	4	-1	-17
COc1cccc(NC(=O)N2CCCC2C(=O)NCc2ccco2)c1 (stereo not drawn)	-6	0.1	-20	-6	7	2
CCC(C)CCCCCCCCCCC(=O)O (stereo not drawn)	-17	·	5	-9	·	·
CC(C)c1c(O)nc(SCCOc2ccc(Cl)cc2)[nH]c1=O	4	1.4	1	4	28	9
Cc1nnc(NC(=O)CSc2nnc(C)n2Cc2ccccc2)s1	-19	0.2	0	8	-8	-6
O=C(c1nc[nH]c1C(=O)N1CCN(c2ccccc2)CC1)N1CCN(c2ccccc2)CC1	3	-0.5	-2	-5	-8	5
COc1oc(-c2ccccc2)nc1C(F)(F)F	-6	-0.4	5	0	10	?
O=C(O)Cn1ncc2ccccc2c1=O	-3	-0.7	-2	1	-14	-6
CCOc1ccccc1CN1CCCC(C(=O)c2ccc(OC)c(OC)c2)C1 (stereo not drawn)	-3	0.8	-18	-7	2	?
O=C(CSc1nc2ccncc2[nH]1)Nc1ccccc1C(F)(F)F	-7	-1.3&0.3	2	-5	-2&0	2
C/C=C(\C)CN1CCC(n2nccc2NC(=O)CCOc2ccccc2)CC1	-32	1.7	-9	15	1	-5
O=C(NNS(=O)(=O)c1ccc(F)cc1)c1ccc(O)cc1	-3	-0.2	·	8	17	-4
CC(OC(=O)/C=C/c1ccccc1)C(=O)NC1CCCCC1C (stereo not drawn)	-3	1.2	2	-1	9	0
COc1ccc(C(=O)Nc2sc(C)c(C)c2CN2CCOCC2)cc1	-3	-0.5	9	-9	8	-13

Profiles as entered above.
O=C(c1nc[nH]c1C(=O)N1CCN(c2ccccc2)CC1)N1CCN(c2ccccc2)CC1 as listed: D2 PAM = 3; TRPML1 agonist = -0.5; CtBP-E1A inh = -2; Six1-Eya2 blk = -5; TRPML1 blocker = -8; TRPV1 potentiator = 5
Cc1nnc(NC(=O)CSc2nnc(C)n2Cc2ccccc2)s1 as listed: D2 PAM = -19; TRPML1 agonist = 0.2; CtBP-E1A inh = 0; Six1-Eya2 blk = 8; TRPML1 blocker = -8; TRPV1 potentiator = -6
Cc1cc(C)cc(C(=O)NC(CC(N)=O)c2ccc(N3CCC(N4CCCCC4)CC3)c([N+](=O)[O-])c2)c1 (stereo not drawn) as listed: D2 PAM = -50; TRPML1 agonist = -0.1; CtBP-E1A inh = -1; Six1-Eya2 blk = 6; TRPML1 blocker = 12; TRPV1 potentiator = 8

Continued:
SMILES	D2 PAM	TRPML1 agonist	CtBP-E1A inh	Six1-Eya2 blk	TRPML1 blocker	TRPV1 potentiator
Cc1c(Cl)c(C(=O)NNC(=S)Nc2ccccc2)nn1C	-16	0.2	0	-5	7	?
C[C@@H]1COC(=O)[C@@H](CC(=O)OC(C)(C)C)C/C=C\C[C@@H](CC(=O)NCCO)C(=O)N1	·	-0.7	5	3	-5	·
CCOC(=O)C(=O)N=Nc1c(O)[nH]c2ccccc12	-12	0.2	-20	-14	40	4
CC(=O)NCCNC(=O)C1Cc2c(-c3ccc4c(c3)OCO4)ccnc2O1 (stereo not drawn)	-4	-0.2	-2	-3	·	·
CCc1nc2n[nH]c(N)c2c2c1CSC(C)(C)C2	-7	1.1	7	6	-20	24
CCC(c1nnnn1Cc1ccco1)N(CCc1ccccc1)Cc1cc2cc(C)ccc2[nH]c1=O (stereo not drawn)	2	6.1	-12	-16	22	-6
CCOC(=O)C1CCCN(C(=O)c2ccc(OCC)cc2)C1 (stereo not drawn)	3	0.9	1	6	-3	7
CC1CN(CC(O)COCc2ccc3c(c2)OCO3)CC(C)O1 (stereo not drawn)	3	0.7	3	18	-22	-1
COc1ccc(N(CC(=O)O)S(C)(=O)=O)cc1OC	-11	2.1	-1	4	2	12
CC(=O)Nc1ccc(NC(=O)C(C)OC(=O)c2c(NC(C)=O)sc(C)c2C)cc1 (stereo not drawn)	3	-0.4	·	-1	-2	7
CN(c1ccccc1C(=O)Nc1ccc(F)c(F)c1)S(C)(=O)=O	5	-0.2	2	-14	7	?
CC(C)(C)N(Cc1ccccc1)C(=O)CCc1ccccc1	-3	4.0	4	6	19	4
O=c1sc(Nc2ccccc2)nc2ccccc12	-3	-1.6	-5	9	-21	-1
CS(=O)(=O)N1CCc2cc(C(=O)Nc3cccc([N+](=O)[O-])c3)ccc21	-3	-0.3	6	7	-6	2
CCn1nc(C)cc1C(=O)Sc1ccc(Cl)cc1Cl	-10	0.8	0	4	0	4
COC(=O)c1sccc1-n1cccc1C(=O)C(=O)N1CCOCC1	-2	-0.2	5	0	-12	7
CCN(CC)S(=O)(=O)c1cccc(C(=O)OCC(=O)Nc2ccccc2OC(F)F)c1	-12	0.6	-9	-12	19	2
CCOC(=O)C1CCN(Cc2cn[nH]c2-c2ccccc2)CC1	-13	-0.6	-1	0	-1	-4
Cc1ccccc1-c1cc2nc(OCC3CCCO3)n(C)c(=O)c2s1 (stereo not drawn)	-10	-0.9	-2	0	·	·
COc1cccc(/C=N/NC(=O)c2nc(-c3ccccc3)cc(-c3ccccc3)n2)c1	-18	1.4	-3	-5	21	0
